# KCNQ2 enhance: potentiators of rat KCNQ2 potassium channel; CHO-K1 KCNQ2, FluxOR thallium flux fluorescence; hits give high values; Potassium voltage-gated channel subfamily KQT member 2 (Rattus norvegicus), O88943; B-score at 10 µM; AID 2239, 2010; 310,000 compounds, 0.54% hits;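 active means fluorescence ratio B-score at least 3 SD of library B-scores, with initial fluorescence B-score within 3 SD, cut at about 5.3 in these data; same plate scores as AID 2156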;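 further: B-score of peak minus minimum over baseline fluorescence ratio after K+ and Tl+ stimulus; positive B-score means potentiation of KCNQ2 with more thallium influx and brighter signal; only the inactives scoring about 0 or higher are listed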
# Target sequence (O88943 whole entry, looked up): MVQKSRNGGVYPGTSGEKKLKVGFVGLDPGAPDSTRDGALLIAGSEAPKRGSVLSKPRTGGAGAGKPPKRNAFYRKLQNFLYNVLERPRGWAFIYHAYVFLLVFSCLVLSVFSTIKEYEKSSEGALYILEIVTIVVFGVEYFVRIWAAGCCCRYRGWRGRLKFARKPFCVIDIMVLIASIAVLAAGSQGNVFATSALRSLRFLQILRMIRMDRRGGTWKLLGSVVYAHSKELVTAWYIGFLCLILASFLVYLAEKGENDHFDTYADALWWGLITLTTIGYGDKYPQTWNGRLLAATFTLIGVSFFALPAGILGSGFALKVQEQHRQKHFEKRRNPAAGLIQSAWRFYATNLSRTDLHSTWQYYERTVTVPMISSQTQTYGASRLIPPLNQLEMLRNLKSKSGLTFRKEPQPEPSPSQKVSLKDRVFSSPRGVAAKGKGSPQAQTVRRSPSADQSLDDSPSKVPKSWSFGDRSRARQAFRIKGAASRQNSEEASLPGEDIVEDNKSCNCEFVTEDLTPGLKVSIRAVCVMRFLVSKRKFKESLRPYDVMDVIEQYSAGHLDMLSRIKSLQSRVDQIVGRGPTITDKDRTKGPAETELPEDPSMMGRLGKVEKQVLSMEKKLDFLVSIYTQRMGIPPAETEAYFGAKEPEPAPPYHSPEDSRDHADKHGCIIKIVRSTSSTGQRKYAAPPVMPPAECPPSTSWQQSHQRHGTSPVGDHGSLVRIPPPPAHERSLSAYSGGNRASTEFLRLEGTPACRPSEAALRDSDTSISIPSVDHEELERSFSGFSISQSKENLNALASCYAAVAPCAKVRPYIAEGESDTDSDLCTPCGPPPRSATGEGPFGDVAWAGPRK
# KCNQ2 enhance baseline: further read-out of KCNQ2 enhance, marked with its call; B-score; compound at 10 µM; measured here: initial fluorescence intensity artifact check;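 brightness before thallium and not channel activity; 0 = typical well and far values either way flag optical interference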
# * marks the source's active call; other numbers are inactive results.
SMILES,KCNQ2 enhance,KCNQ2 enhance baseline
O=C(O)COc1ccccc1/C=C1\SC(=O)N(Cc2ccc(F)cc2)C1=O,0.02,-0.8
C=CCc1ccc(OCCCOc2ccc(C)cc2OC)c(OC)c1,0.38,-0.34
C=CCSc1nc(C)c(CC=C)c(=O)[nH]1,0.49,-2
CC(=O)N/C(=C\c1ccccc1)C(=O)NCc1ccc2c(c1)OCO2,0.01,0.82
O=C(CN1C(=O)c2ccccc2S1(=O)=O)Nc1ccon1,0.01,-0.25
O=C(COC(=O)c1ccc2[nH]c3c(c2c1)CCCC3)Nc1ccccc1Cl,0.2,0.52
COC(=O)c1[nH]c2ccc(F)cc2c1NC(=O)C1=COCCO1,1.6,-0.42
CC(=O)OCCOc1nc(N(C)C)nc(N(C)C)n1,0.39,0.39
C/C(=N/NC(=O)c1cccc(N2CCCC2=O)c1)c1ccc(Br)cc1,0.4,-0.29
O=C1CCC(=O)N1c1ccccc1OS(=O)(=O)c1ccccc1,0.09,0.61
Cc1c(Cc2ccc3c(c2)OCO3)sc(NC(=O)c2ccccc2)c1C(N)=O,0.65,0.81
Cc1cc(Oc2ccc(=O)[nH]n2)nc(Cl)n1,2,0.95
COc1ccc(NC(=O)COC(=O)c2c(C)noc2C)c(OC)c1,0.61,-0.98
O=C1CC2(CCN(C(=O)c3ccccc3F)CC2)Oc2ccccc21,0.96,-0.29
CC(=O)c1cc2c(cc1NS(=O)(=O)c1ccccc1)OCO2,0.11,0.01
CNc1nc(SC)nc2ccccc12,0.48,0.66
O=C(CCCc1nc(-c2ccc(Cl)cc2)no1)NCC1CCCO1 (stereo not given),2.5,-1.2
CSCC(C)N1CCC(n2nccc2NC(=O)CCOc2ccccc2)CC1 (stereo not given),0.08,1.6
COc1ccc(S(=O)(=O)Nc2cc(C)ccn2)cc1OC,0.13,2.5
COc1ccc(S(=O)(=O)NCC(c2cccnc2)N2CCN(c3ccc(F)cc3)CC2)cc1C (stereo not given),0.01,-1.3
Nc1ccc(C(=O)OCC(=O)NC2CCCc3ccccc32)cc1[N+](=O)[O-] (stereo not given),0.01,-0.75
CC(=O)Nc1ccc(NC(=O)C(C)N(C)CC(=O)Nc2ccccc2Br)cc1 (stereo not given),1.4,-0.79
CCN(CC)CCCNC(=O)CNC(=O)c1nn(-c2ccc(OC)c(OC)c2)c(=O)c2ccccc12,0.29,-0.82
CCOc1ccc(-c2cc(C(=O)O)c3ccccc3n2)c(OCC)c1,0.32,-0.76
O=C(C1CCCN(Cc2ccccc2C(F)(F)F)C1)N1CCCCC1 (stereo not given),0.02,-0.86
CCOc1ccccc1N1C(=O)CC(Sc2ncccc2C(=O)O)C1=O (stereo not given),0.02,-0.06
O=C(O)COc1ccccc1/C=N/Nc1ccc(S(=O)(=O)N2CCOCC2)cc1[N+](=O)[O-],0.43,0.35
Cn1c(NC(=O)c2ccc(S(=O)(=O)N3CCOCC3)cc2)cc(=O)n(C)c1=O,1.6,-1.1
Cc1ccc(Nc2ncc(C(=O)NCCCN3CCN(C)CC3)c3ccccc23)cc1Cl,3.5,0.01
Cc1ccc2cc(CN(Cc3ccc(F)cc3)Cc3nnnn3C3CCCC3)c(=O)[nH]c2c1,0.42,-0.17

# Brought forward from above: 5 entries, then new ones.
SMILES,KCNQ2 enhance,KCNQ2 enhance baseline
CCOc1ccccc1N1C(=O)CC(Sc2ncccc2C(=O)O)C1=O (stereo not given),0.02,-0.06
O=C(O)COc1ccccc1/C=N/Nc1ccc(S(=O)(=O)N2CCOCC2)cc1[N+](=O)[O-],0.43,0.35
Cn1c(NC(=O)c2ccc(S(=O)(=O)N3CCOCC3)cc2)cc(=O)n(C)c1=O,1.6,-1.1
Cc1ccc(Nc2ncc(C(=O)NCCCN3CCN(C)CC3)c3ccccc23)cc1Cl,3.5,0.01
Cc1ccc2cc(CN(Cc3ccc(F)cc3)Cc3nnnn3C3CCCC3)c(=O)[nH]c2c1,0.42,-0.17
C/C(=N/NS(=O)(=O)c1ccc(F)cc1)c1ccncc1,1.3,0.37
C/C(=N\NC(=O)c1c(C)nc2ccccn12)c1ccc(N2CCOCC2)cc1,0.69,0.28
O=C(CNC(=O)c1cc2c(s1)CCC2)Nc1ccccc1Br,0.56,0.06
O=C(CSc1ccc(Cl)cc1)Nc1ccc(N2CCN(C(=O)c3ccco3)CC2)cc1,1.5,-0.1
COc1ccc(C(=O)NC(=O)Nc2ncccc2C)cc1,0.71,-0.5
COc1cc(NC(=O)c2csc3c2CCCC3)ncn1,0.71,-0.62
CCCOc1ccc(N2C(=O)CC(N(CCC)C(=O)CCC(=O)O)C2=O)cc1 (stereo not given),1.9,0.99
CCOC(=O)c1sc(NC(=O)CSc2nc(C)cc(C)c2C#N)c(C#N)c1C,0.15,-2.1
CCC(=O)Nc1ccc(C(=O)OCC(=O)c2ccc(C)c([N+](=O)[O-])c2)cc1,0.03,-0.42
CC1CC(=O)Nc2ccccc2N1S(=O)(=O)c1ccc(C#N)cc1 (stereo not given),0.67,-3.2
CCN(CC)S(=O)(=O)c1ccc(NC(=O)C2CCCN(C(=O)c3ccc(Cl)cc3)C2)cc1 (stereo not given),0.06,-0.51
CC(=O)Oc1ccc2c(=O)c(Oc3ccccc3)coc2c1OC(C)=O,2,-1.2
CCN(CC)S(=O)(=O)c1ccc(N2CCN(C)CC2)c(NC(=O)Nc2ccccc2F)c1,0.01,0.67
O=S1(=O)N=C2CCCN2C(c2ccc(F)cc2)N1 (stereo not given),0.11,-0.25
CN(Cc1ccccc1)C(=S)NC(=O)c1cccs1,2.2,0.32
COc1cc(C(=O)OCC(=O)Nc2sccc2C(N)=O)cc(OC)c1OC,1.5,1.2
CC(C)C1Cc2[nH]c(=O)c(C(=O)O)cc2CO1 (stereo not given),0.32,1.9
COc1ccc(CCC(=O)Nc2ccc3c(c2)OCO3)cc1,0.32,-2.8
COc1ccc(CC(=O)Nc2cccc3ncccc23)cc1OC,1.3,-0.09
Cc1cc(O)ccc1NC1=CC(=O)CC(C)(C)C1,0.03,-0.02
O=C(Cc1ccccc1F)Nc1nc2ccccc2[nH]1,0.48,-0.19
N#CC1=C(N)N2C(=C(C#N)C13CCN(Cc1ccccc1)CC3)Nc1ccccc12,0.58,0.05
CCOC(=O)C1=C(N)Oc2cc(O)ccc2C1c1ccc(F)cc1F (stereo not given),0.36,-1.7
COc1cccc(OC)c1C(=O)Nc1ccc(N2CCN(C(=O)c3ccco3)CC2)cc1,1.4,0.19
COC(=O)c1ccc(NC(=O)c2ccccc2NS(=O)(=O)c2ccccc2)cc1,0.91,0.78
CS(=O)(=O)N(CC(=O)NCc1ccccc1)c1ccc(Cl)cc1,0.22,0.46
O=C1CN(C(=O)COC(=O)CCCOc2ccccc2)c2ccccc2N1,0.74,1.4
COc1ccc(C(=O)NNC(=O)CSc2nnc(COc3ccc4ccccc4c3)n2C)cc1,0.82,0.88
Cc1cc(NC(=O)C2CC(c3ccc(F)cc3)=NO2)n(-c2ccccc2)n1 (stereo not given),0.59,-0.2
CCN(CC(=O)NC1CCS(=O)(=O)C1)S(=O)(=O)c1cc(C)ccc1C (stereo not given),0.66,0.97
CCN(CC)S(=O)(=O)c1ccc(NC2c3ccccc3C(=O)N2Cc2ccc3c(c2)OCO3)cc1 (stereo not given),1.1,1.2
O=C1c2ccccc2C(=O)N1c1cccc(-c2nc3ccccc3o2)c1,1.4,1.2
O=C(/C=C/c1ccc2c(c1)OCCCO2)c1ccc2ccccc2c1O,0.92,-0.57
CC(C)c1ccc(NC2CCCN(C(=O)c3ccc4nccnc4c3)C2)cc1 (stereo not given),0.06,-0.29
CCCc1cc(-c2nc(-c3ccc(C)cc3)cs2)ccn1,0.08,-0.38
COc1cccc(N/C(SC)=C(/C#N)C(N)=O)c1,0.89,-0.46
Cc1ccc(-n2nc(C)c(/C=N/NC(=O)c3cccs3)c2Cl)cc1,0.86,-1.2
Cc1cc(=O)[nH]c(SCC(=O)NCc2ccco2)n1,0.97,0.68
Cc1cc(S(=O)(=O)N2CCN(c3ccccc3O)CC2)c(C)s1,0.01,-1.1
Cc1ccc(Cn2c(=N)n(CC(O)c3ccco3)c3ccccc32)cc1 (stereo not given),2.5,-2.1

# 7 of the entries above in order of the KCNQ2 enhance value, largest number first:
SMILES,KCNQ2 enhance,KCNQ2 enhance baseline
COc1cc(C(=O)OCC(=O)Nc2sccc2C(N)=O)cc(OC)c1OC,1.5,1.2
CCN(CC)S(=O)(=O)c1ccc(NC2c3ccccc3C(=O)N2Cc2ccc3c(c2)OCO3)cc1 (stereo not given),1.1,1.2
Cc1ccc(-n2nc(C)c(/C=N/NC(=O)c3cccs3)c2Cl)cc1,0.86,-1.2
COc1cc(NC(=O)c2csc3c2CCCC3)ncn1,0.71,-0.62
COc1ccc(NC(=O)COC(=O)c2c(C)noc2C)c(OC)c1,0.61,-0.98
O=C(CNC(=O)c1cc2c(s1)CCC2)Nc1ccccc1Br,0.56,0.06
O=C(CN1C(=O)c2ccccc2S1(=O)=O)Nc1ccon1,0.01,-0.25

# Carrying on.
SMILES,KCNQ2 enhance,KCNQ2 enhance baseline
CCOC(=O)c1sc(NC(=O)C2C3C=CC(C3)C2C(=O)O)nc1C (stereo not given),0.78,-0.03
COc1cccc(N2CCN(C(=S)Nc3ccccc3)CC2)c1,0.01,-1.1
CCNC(=O)c1c(O)c2ccccc2[nH]c1=O,0.13,-0.14
O=C(CSc1nc(C2CCCCC2)nc2ccccc12)N1CCCC1,4.1,-0.4
CCC(C)Nc1nc(N)c([N+](=O)[O-])c(NCc2ccccc2)n1 (stereo not given),1.7,0.02
CC(C)c1ccc(-c2c(C#N)c(N)nc(SCC(=O)N3CCCCCC3)c2C#N)cc1,0.29,0.18
C/C(=N\O)c1noc(C)c1C(=O)Nc1nccs1,0.61,2
O=C(C1CCCN(Cc2cccnc2)C1)N1CCCCC1 (stereo not given),0.74,-2.6
Cc1nnc(NC(=O)CCC(=O)NC2CCCCCCC2)s1,0.89,0.88
c1nc2sc3c(c2c2nnnn12)CCC3,0.22,0.46
O=C(c1ccc(CS(=O)c2cccc(Cl)c2)o1)N1CCOCC1 (stereo not given),0.65,3.4
COc1cc(C(=O)N2CCC(n3cnc4cc(F)ccc43)CC2)cc(OC)c1OC,1.1,-0.02
CCOc1ccccc1Nc1nnc(C)c(=O)[nH]1,1.3,0.38
O=c1c2[nH]c3ccc(Br)cc3c2ncn1CCCn1ccnc1,0.14,0.48
CCOc1ncccc1C(=O)Nc1ccc(Cl)cc1,0.33,3
Cc1cccc(NC(=S)N2CCn3cccc3C2c2cccnc2)c1 (stereo not given),1.6,0.29
N#Cc1c(-c2ccccc2F)cc(C2CC2)nc1SCC(=O)c1cccs1,12*,-1.8*
C/C(=N/NC(=O)c1ccco1)c1ccc(NC(=O)c2ccc(Br)o2)cc1,0.13,0.26
CCCCCNc1nc(NCCCO)c(C#N)c2c1CN(C)CC2,1.8,-1.2
C=CCNc1nc(N)c(C(=C(C#N)C#N)c2ccc(Br)cc2)s1,1.8,0.2
COc1cnc(-c2ccccc2)[nH]c1=O,0.42,-2.6
Cc1nc(CC(=O)Nc2nccs2)cs1,1.2,-2
O=C(NCc1ccccc1)C1CC(=O)N(c2ccc(OCC(=O)N3CCCC3)cc2)C1 (stereo not given),0.16,-0.64
COc1ccccc1CNS(=O)(=O)c1cccs1,1,1.5
CCCn1c(N)c(C(=O)CSc2nc(C)cs2)c(=O)n(C)c1=O,1.1,-0.08
COc1ccc(NC(=O)Nc2nnc(-c3cccs3)s2)cc1,0.07,1.8
c1ccc(COc2ccc(Oc3nc(N4CCCCC4)nc(N4CCOCC4)n3)nn2)cc1,1.2,-0.73
c1ccn2cc(C34CC5CC(CC(C5)C3)C4)nc2c1,0.1,-0.48
CN(c1ccccc1)S(=O)(=O)c1cccc(NC(=O)Cc2c(F)cccc2Cl)c1,0.91,-0.21
CCOc1ccc2nc(NC(=O)c3ccc(S(=O)(=O)N4CCOCC4)cc3)sc2c1,0.93,-0.79
Cc1csc(C(=O)NN)c1N(C)C,1,1.3
CC(c1nccs1)N(C)c1nc2nonc2nc1NC1CC1 (stereo not given),0.48,1.6
c1coc(CNc2ncnc3ccccc23)c1,0.98,1.3
CC(Sc1nnc(-c2ccco2)o1)C(=O)NCCC1=CCCCC1 (stereo not given),0.01,0.77
Cc1cc(C)n(CCC(=O)N2CCN(S(=O)(=O)c3ccc(C)c(C)c3)CC2)n1,0.79,-2.6
CCN1C(=O)CSc2ccc(C(=O)NC3CCCCC3)cc21,0.25,0.09
CSc1nsc(NC(=O)Cc2ccccc2)n1,0.38,-0.34
O=C(Nc1ccc(CN2CCS(=O)(=O)CC2)cc1)c1ccc(C(F)(F)F)cc1,0.32,-1.2
O=C(c1ccc2c(c1)OCO2)N1CCN(S(=O)(=O)N2CCCCC2)CC1,0.02,0.62
CC(C)CCNC(=O)c1ccc(OC2CCN(S(=O)(=O)N(C)C)CC2)cc1,0.02,0.02
CCCOc1ccc(-c2c(C(=O)N/N=C/c3ccccc3OCC)nnn2-c2nonc2N)cc1,0.62,0.88
O=c1c([N+](=O)[O-])c(N2CCOCC2)c2ccccc2n1Cc1ccccc1,0.59,1.7
O=C(O)CC1SC(=Nc2cccc(C(F)(F)F)c2)NC1=O (stereo not given),0.68,1.7
Cc1cc(C)cc(N2C(=O)CC(n3ccnc3)C2=O)c1 (stereo not given),0.16,1.6
COC(=O)c1nonc1NCn1nnc2ccccc21,0.42,-0.1
CC(=O)C1=C(C)OC(N)=C(C#N)C1c1ccncc1 (stereo not given),0.06,0.71
Cn1ccsc1=NC(=O)c1cccc(C#N)c1,1.4,-2.6
Nc1c2c(nc3sc4c(c13)CCCC4)CCCCCC2,1.4,-1.6
Cc1ccc(CC(=O)Nc2ccncc2)cc1,0.19,2.2
O=C(CCn1c(=O)oc2ccccc21)N1CCc2ccccc21,0.61,1.8

# Bioassay records deposited in PubChem BioAssay by Johns Hopkins Ion Channel Center.

# The list is partial; the hit share may differ from the screen's.
